Polio RdRp inh – poliovirus RNA polymerase inhibition | % elongation, % (compound at 16.7 µg/mL) | poliovirus polymerase elongation, fluorescence polarization; active compounds read low | hit rate 0.66% among 150,000; in the data active means % elongation below about 90%; further: some results filed as inactive read as strong as hits
Target sequence (P03300 1749-2209 limits assumed): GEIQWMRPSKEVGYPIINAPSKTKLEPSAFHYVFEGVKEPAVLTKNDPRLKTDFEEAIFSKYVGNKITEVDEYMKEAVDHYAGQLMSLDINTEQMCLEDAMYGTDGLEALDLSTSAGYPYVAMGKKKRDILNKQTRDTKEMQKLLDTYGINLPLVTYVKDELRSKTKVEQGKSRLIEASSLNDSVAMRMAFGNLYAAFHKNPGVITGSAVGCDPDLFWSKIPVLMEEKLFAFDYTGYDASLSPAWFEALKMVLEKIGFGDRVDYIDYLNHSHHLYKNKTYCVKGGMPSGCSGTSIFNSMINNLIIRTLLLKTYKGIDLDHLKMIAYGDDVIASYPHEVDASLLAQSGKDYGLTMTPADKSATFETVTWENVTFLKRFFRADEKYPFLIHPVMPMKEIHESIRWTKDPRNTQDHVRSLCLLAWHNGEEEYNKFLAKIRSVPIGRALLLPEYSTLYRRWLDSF
Polio RdRp inh intensity – recorded beside Polio RdRp inh, whose call it bears; % elongation; measured here: total intensity read-out; formula for this scale not given here;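 total fluorescence in place of polarization; lower means less elongation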
Active calls of the source: *.

SMILES	Polio RdRp inh	Polio RdRp inh intensity
CCOC(=O)c1c(S(=O)(=O)NCC(=O)N2CCN(c3cccc(Cl)c3)CC2)c(C)n(C)c1C	99	96
Cc1ccc(C)c(NC(=O)CSc2nnc(-c3cc4occc4n3C)n2-c2ccccc2C)c1	115	117
CN(C)S(=O)(=O)c1ccc2c(c1)N(CC(=O)N1CCN(c3ccccc3F)CC1)CCS2	105	102
CCc1cccc(NC(=O)c2cccc3c2C(=O)N(C2CCCCC2)C3)c1	111	110
Cc1nn(C)c2c1c(C(F)(F)F)cc(=O)n2C(C)C(=O)NCc1ccccc1Cl (stereo unspecified)	103	100
Cc1ccc2c(c1)-c1onc(C(=O)N3CCN(c4cc(C)ccc4C)CC3)c1CO2	110	107
CC1CCCCN1CCCNC(=O)CN1C(=O)CSc2ccc(S(=O)(=O)N3CCOCC3)cc21 (stereo unspecified)	105	106
CCC(C)(C)NC(=O)C1CCN(S(=O)(=O)c2ccc3c(c2)CCCN3C(C)=O)CC1	103	109
O=C(NCc1ccc(F)cc1)C1CCCCN1S(=O)(=O)c1ccc(F)cc1 (stereo unspecified)	111	109
Cc1cccc(NC(=O)c2sc3nc(-c4ccccc4)cn3c2C)c1C	104	99
CCCCN(CCCC)CCNC(=O)c1cc(=O)[nH]c2ccc(S(=O)(=O)N3CCCCCC3)cc12	113	109
Cc1ccc2nc(-c3cccs3)c(Nc3c(C)cccc3C)n2c1	107	109
Cc1ccc(S(=O)(=O)Nc2ccc3nc(-c4cccc(Cl)c4)oc3c2)cc1	109	112
CCn1cc(C(=O)NCc2ccc(C)cc2)c(=O)c2cc(S(=O)(=O)N3CCc4ccccc4C3)ccc21	103	109
COc1cccc(NC(=O)C2CCCN(S(=O)(=O)c3cn(C(C)C)cn3)C2)c1 (stereo unspecified)	107	97
CCC(=O)N1c2ccccc2CC1C(=O)NCc1cccc(C)c1 (stereo unspecified)	102	109
CCOC(=O)c1cc(-c2ccccc2)n(CCCC(=O)Nc2cccc(C)c2C)c1C	104	95
CCc1ccc(NC(=O)N2CCOc3ccc(Cl)cc32)cc1	112	109
CCCc1cnc2c(c1SCC(=O)Nc1ccccc1F)c(=O)n(C)c(=O)n2C	105	97
CCc1cccc(C)c1Nc1c(-c2ccc(N(C)C)cc2)nc2cnccn12	115	142
COc1ccc(-c2cc(C(C)=O)c(C)n2CCC(=O)NCc2ccccc2OC)cc1	104	108
Cc1ccc(-c2nc(C)c(CCNC(=O)c3ccccc3Br)s2)cc1	112	111
CCc1ccc(C(=O)COC(=O)C(NC(=O)C2CCC(C)CC2)C(C)C)cc1 (stereo unspecified)	111	113
COc1ccccc1CNC(=O)c1ccc2c(c1)CCN2S(=O)(=O)c1ccccc1	103	104
O=C=NC(Cl)(c1ccccc1)C(F)(F)F (stereo unspecified)	101	106
COc1ccccc1N1CCN(c2cc(C)nc3c(-c4ccc(Cl)cc4)c(C)nn23)CC1	111	113
CCOc1ccc(OCC)c(NC(=O)c2nnn(CC(=O)Nc3ccc(C)cc3C)c2N)c1	112	113
N#C/C(=C/c1ccc(Cl)cc1Cl)c1nc2ccccc2c(=O)[nH]1	108	109
COc1ccccc1OCCCn1c(C2CC(=O)N(c3ccc(F)cc3)C2)nc2ccccc21 (stereo unspecified)	113	114
CC1Cc2cc(S(=O)(=O)NCCc3ccc(Cl)cc3)ccc2N1C(=O)C1CCC1 (stereo unspecified)	107	112

Compounds above that have two or more sulfur atoms, in the order listed:
SMILES	Polio RdRp inh	Polio RdRp inh intensity
CN(C)S(=O)(=O)c1ccc2c(c1)N(CC(=O)N1CCN(c3ccccc3F)CC1)CCS2	105	102
CC1CCCCN1CCCNC(=O)CN1C(=O)CSc2ccc(S(=O)(=O)N3CCOCC3)cc21 (stereo unspecified)	105	106

Reprinted at random: 7 records from the list
SMILES	Polio RdRp inh	Polio RdRp inh intensity
CCc1ccc(C(=O)COC(=O)C(NC(=O)C2CCC(C)CC2)C(C)C)cc1 (stereo unspecified)	111	113
N#C/C(=C/c1ccc(Cl)cc1Cl)c1nc2ccccc2c(=O)[nH]1	108	109
CC1Cc2cc(S(=O)(=O)NCCc3ccc(Cl)cc3)ccc2N1C(=O)C1CCC1 (stereo unspecified)	107	112
COc1ccccc1CNC(=O)c1ccc2c(c1)CCN2S(=O)(=O)c1ccccc1	103	104
COc1ccccc1OCCCn1c(C2CC(=O)N(c3ccc(F)cc3)C2)nc2ccccc21 (stereo unspecified)	113	114
CCOc1ccc(OCC)c(NC(=O)c2nnn(CC(=O)Nc3ccc(C)cc3C)c2N)c1	112	113
Cc1ccc(-c2nc(C)c(CCNC(=O)c3ccccc3Br)s2)cc1	112	111

Other compounds follow.
SMILES	Polio RdRp inh	Polio RdRp inh intensity
CCN(C(=O)CSc1nc2ccccc2n1Cc1ccc(F)cc1Cl)c1ccccc1	105	110
CCOC(=O)c1ccc(NC(=O)c2ccc3c(c2)c(C)c(C)n3Cc2ccc(F)cc2)cc1	110	109
COc1cccc(N2C(=O)C(CC(=O)Nc3cccc(F)c3)N(C3CCCC3)C2=O)c1 (stereo unspecified)	104	104
COC(=O)c1ccccc1NC(=O)C1=CC(c2cccs2)=NS(=O)(=O)N1C	112	112
Cc1ccc(C(C)C)c(OCC(=O)Nc2ccc(S(=O)(=O)Nc3onc(C)c3C)cc2)c1	96	90
Cc1ccccc1-n1c2nc(=O)[nH]c(=O)c-2cc2c(Cl)cccc21	105	113
Cc1cc(C)c(NC(=O)Cn2c(=O)n(Cc3ccc4c(c3)OCO4)c(=O)c3ccc(C(=O)NC4CCCCC4)cc32)c(C)c1	107	108
O=C(Nc1ccc(F)cc1F)c1cc(S(=O)(=O)N2CCCCC2)c[nH]1	101	100
Cc1cc(=O)[nH]c2nnc(SCC(=O)Nc3ccc(OC(F)(F)F)cc3)n12	100	104
CCN(CC)CCOC(=O)c1ccc(NC(=O)CSc2cc(=O)n(CC)c3ccccc23)cc1	110	107

More entries:
Each structure is followed by: Polio RdRp inh, Polio RdRp inh intensity
Cc1ccc(C)c(N2CCN(CCCNC(=O)c3cnn(-c4ccc(F)cc4)c3C3CCN(C(=O)OC(C)(C)C)CC3)CC2)c1
→ 113, 105
CCc1ccc(NC(=O)C2CCN(C(=O)N3CC(CC)Oc4ccccc43)CC2)cc1 (stereo unspecified)
→ 106, 109
CCN(CC)S(=O)(=O)c1ccc(OC)c(NC(=O)c2sc3ccccc3c2Cl)c1
→ 107, 109
Cc1cccc(NC(=O)COc2ccc(-c3nn(C)c(=O)c4ccccc34)cc2)c1
→ 104, 106
Cc1cc(C)c(S(=O)(=O)NCCc2cc3ccc(C)c(C)c3[nH]c2=O)c(C)c1
→ 107, 111
CCn1c(=O)c2cc(C(=O)NC3CCC(C)CC3)sc2c2ccccc21 (stereo unspecified)
→ 99, 104
COc1ccc(-c2noc(-c3ccc(NCc4cccnc4)c([N+](=O)[O-])c3)n2)cc1
→ 105, 110
Cc1ccccc1NC(=O)Cn1c(=O)n(Cc2ccc3c(c2)OCO3)c(=O)c2ccc(C(=O)NC3CCCCC3)cc21
→ 103, 111
O=c1c(-c2cc(-c3ccccc3)nc3c2COc2ccc(Cl)cc2-3)coc2ccccc12
→ 103, 106
O=C(NCc1ccc2c(c1)CCN2C(=O)c1ccncc1)c1cccc(Cl)c1
→ 109, 111
Cc1ccc(N2C(=O)CS(=O)(=O)C23C(=O)Nc2ccccc23)cc1C (stereo unspecified)
→ 102, 101
CCOC(=O)N1CCN(C(=O)c2ccc3c(c2)N(Cc2ccccc2F)C(=O)c2ccccc2S3=O)CC1 (stereo unspecified)
→ 109, 110
Cc1ccc(CC(=O)Nc2ccc3c(c2)N(C)C(=O)c2ccccc2S3)cc1
→ 70*, 69*
O=c1cc(CSc2ccccc2)[nH]c2ccc(F)cc12
→ 100, 106
CC(C)(C)c1ccc(-c2nc(SCC(=O)Nc3ccc(Cl)cc3)[nH]c(=O)c2C#N)cc1
→ 107, 107
CCc1ccc(OCC(=O)Nc2c(C(=O)c3ccc(Br)cc3)oc3ccccc23)cc1
→ 106, 112
O=S(=O)(c1ccc(Br)cc1)c1nnn2c1nc(NC1CCCCCC1)c1sccc12
→ 103, 108
Cc1ccc(C(=O)Nc2nnc(S(=O)(=O)N(C)Cc3ccco3)s2)cc1
→ 112, 109
COc1ccccc1NC(=O)CSc1oc(-c2ccccc2)nc1S(=O)(=O)c1ccccc1
→ 101, 99
CCC(=O)N1c2ccccc2CC1C(=O)NCCc1ccc(SC)cc1 (stereo unspecified)
→ 110, 112
CCOc1ccc(Nc2oc(/C=C/c3cccc(OC)c3)nc2C#N)cc1
→ 100, 107
COc1cc(-c2nnc(SCCOc3ccc(Cl)cc3C)o2)cc(OC)c1OC
→ 104, 105
Cc1cc(C)cc(N2C(=O)CSC23C(=O)N(CC(=O)Nc2ccc(F)cc2F)c2ccccc23)c1 (stereo unspecified)
→ 104, 110
CCc1ccc(-n2c(SCC(=O)NC(C)CC)nc3n[nH]c(C)c3c2=N)cc1 (stereo unspecified)
→ 97, 99
Cc1nn(Cc2ccccc2Cl)c(C)c1NC(=O)c1cc(C(C)C)on1
→ 110, 112
Cc1cccc(NC(=O)CC2Nc3cccc4cccc(c34)NC2=O)c1 (stereo unspecified)
→ 94, 95
Cc1cccc(OCc2ccc(-c3nc(C#N)c(N4CCC(C(N)=O)CC4)o3)o2)c1
→ 101, 101
O=C(Cn1c(SCc2ccc(F)cc2)nc2cccnc21)Nc1ccccc1F
→ 113, 123
Cc1ccc(C2=NC(c3ccccc3)=Nc3ccc(Cl)cc3N2)cc1
→ 105, 104
Cc1ccc(CNC(=O)c2ccc3nc(N4CCCCC4)sc3c2)cc1
→ 106, 106
O=C(Cn1cc(SCc2ccc(F)cc2)c2ccccc21)N1CCCC1
→ 116, 114
Cc1ccc2c(=O)c(C(=O)c3ccc(Cl)cc3)cn(CC(=O)Nc3ccc4c(c3)OCCO4)c2n1
→ 111, 112
O=C(CCSCc1ccccc1Cl)NCc1ccc(F)cc1Cl
→ 115, 112
Cc1ccc(-n2ncc3c(N4CCCCCC4)ncnc32)cc1Cl
→ 107, 111
CCSc1nn(CC(=O)Nc2cccc(Cl)c2)c(N)c1S(=O)(=O)c1ccc(OC)cc1
→ 103, 108
Cc1ccc(NC(=O)C(=O)NCC(c2cccnc2)N2CCN(C)CC2)cc1 (stereo unspecified)
→ 110, 106
COc1cccc(C2=CC(c3ccccc3F)n3c(nc4ccccc43)N2)c1 (stereo unspecified)
→ 102, 123
CCOc1ccc(CCNC(=O)NCc2noc3ccc(C)cc23)cc1
→ 104, 114
CCOC(=O)c1ccc(NC(=O)c2csc3c2CCCCC3)cc1
→ 100, 102
COc1cc(-c2nnn(CC(=O)Nc3ccc(OC(F)(F)F)cc3)n2)cc(OC)c1OC
→ 102, 103
CCOC(=O)c1c(C)[nH]c(C)c1S(=O)(=O)NCC(=O)NCc1ccccc1Cl
→ 99, 105
Cc1nn2c(=O)cc(COC(=O)C(c3ccccc3)c3ccccc3)nc2s1
→ 101, 102
O=C(NCc1ccc2c(c1)CCN2C(=O)c1ccccc1)Nc1cc(F)ccc1F
→ 105, 105
O=C(c1cnc2cc(-c3ccccc3)nn2c1)c1cc([N+](=O)[O-])ccc1O
→ 101, 103
CC1=C(C(=O)Nc2ccc(C)cc2C)C(c2ccccc2)n2nc(SCC(=O)c3ccc(C)cc3)nc2N1 (stereo unspecified)
→ 109, 96
CCCNC(=O)C(=O)NCC(c1ccc2c(c1)OCO2)N1CCOCC1 (stereo unspecified)
→ 99, 96
Cc1ccc(F)cc1NC(=O)Cn1c(C)cc(C)c(C#N)c1=O
→ 113, 105
COc1cccc(-n2c(=O)c3cc(OC)c(OC)cc3n(CC(=O)Nc3ccccc3)c2=O)c1
→ 109, 106
O=C(Cn1ncc2c3ccccc3n(Cc3ccccc3F)c2c1=O)NCc1ccccc1Cl
→ 103, 104
Cc1ccccc1Cn1nnc2c(=O)[nH]c(C3CCN(C(=O)c4ccc(F)cc4)CC3)nc21
→ 100, 96

(further entries)
Each structure is followed by: Polio RdRp inh, Polio RdRp inh intensity
O=C(c1ccccc1F)N1c2ncnn2C2(CCCCC2)[C@@H]2CCCC[C@@H]21
→ 110, 104
CC(C)n1c(=N)c(C(=O)NC2CCCCC2)cc2c(=O)n3ccccc3nc21
→ 107, 107
Cc1ccc(NC(=O)C2CCN(S(=O)(=O)c3c(C)noc3C)CC2)cc1C
→ 116, 117
Fc1ccc(CNc2nc(-c3ccccc3)cc(C(F)(F)F)n2)cc1
→ 105, 108
Cc1ccc(C(C)C)c(OCC(=O)Nc2ccc(-c3nc4ncccc4o3)cc2C)c1
→ 103, 102
Cn1c(=O)c(=O)n(C)c2cc(S(=O)(=O)N3CCN(c4ccccc4)CC3)ccc21
→ 104, 108
O=C(OCC1CCCO1)c1ccc2c(c1)N(Cc1c(F)cccc1Cl)C(=O)c1ccccc1S2(=O)=O (stereo unspecified)
→ 102, 109
Cc1cc(NC(=O)c2ccccc2Cl)ccc1NC(=O)c1ccccc1
→ 101, 111
COc1ccc(-c2cnc(C)o2)cc1S(=O)(=O)Nc1ccc(C)c(N(C)C)c1
→ 117, 116
Cc1ccccc1C(=O)Nc1ccc2nc(N3CCCCC3)cc(C)c2c1
→ 105, 106
O=C(CSc1nc2ccsc2c(=O)n1Cc1ccccc1Cl)NCc1ccc(Cl)cc1
→ 113, 113
CCOC(=O)C(Cc1c[nH]c2ccccc12)NC(=O)COc1ccc(Cl)cc1 (stereo unspecified)
→ 101, 93
CCc1ccccc1N1CC(c2nc3ccccc3n2CCC2CCCCC2)CC1=O (stereo unspecified)
→ 100, 104
CCCCN(Cc1ccccc1)C(=O)CN(C)S(=O)(=O)c1ccc2c(c1)c(=O)n(C)c(=O)n2C
→ 103, 97
COc1ccc(Cn2c(CCC(=O)Nc3ccc(C)c(C)c3)nc3cccnc32)cc1
→ 103, 105
Cc1c(Cl)cccc1-c1ccc(CNCCSc2nnnn2-c2ccccc2)o1
→ 99, 105
Cc1ccc(OCC(=O)Nc2ccc3nn(-c4ccc(C)cc4)nc3c2)cc1
→ 102, 103
Cc1nn(-c2ccc(N3CCCC3)nn2)c(C)c1CCC(=O)NCc1ccccc1
→ 110, 116
Cc1cc(C)n(-c2nc3ccccc3nc2Nc2cc(Cl)ccc2C)n1
→ 109, 108
Cc1nc(-c2ccc(Cl)cc2)sc1CCNC(=O)C(=O)Nc1ccc2c(c1)OCCO2
→ 112, 111

Compound activity: PubChem, ICCB-Longwood Screening Facility, Harvard Medical School

An excerpt; the hit share may differ from the screen's.
